# gsp antagonist: qHTS for Antagonists of gsp, the Etiologic Mutation Responsible for Fibrous Dysplasia/McCune-Albright Syndrome: qHTS | Potency, µM (top dose mostly 76.9 µM), without a hit: top-dose activity change, negative = inhibition, most hits filed as inhibitors | gsp-mutant cells, cAMP HTRF, 30 min; control for the full effect not named in the record | 0.4% of 340,000 active | AID 624288, 2012; active = falling curve of any shape with a large fitted effect; inconclusive = falling curve, mostly with a smaller effect; inactive = flat or rising curve; cell line not stated here;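 also: intracellular cAMP measured with PDE inhibitor Ro 20-1724 present during compound exposure; potency is read from the fitted curve at half-maximal effect; % is scaled to controls: 0 for no effect and ±100 for the full control effect; nearly all actives have a fitted effect of over 65% in size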
#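 HTRF cAMP read-out (cAMP-d2 plus anti-cAMP antibody-K in lysis buffer, 30 min RT). Before lysis, cells are exposed to compounds with […] for 30 min at 37C in DPBS containing Ca/Mg, BSA and Tween 20.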
# gsp agonist: qHTS for Agonist of gsp, the Etiologic Mutation Responsible for Fibrous Dysplasia/McCune-Albright Syndrome: qHTS | AID 624287, 2012 | Potency, µM (titrated, usually from 76.9 µM), for inactives: at the highest dose activation (cAMP increase), most hits filed as activators | 0.13% of 340,000 active | gsp mutant cells, cAMP HTRF, 30 min; control for the full effect not named in the record; active = well fitted activation curve with a large enough effect; inconclusive = small, poorly fitted or top-dose-only effect, or another doubt; inactive = no such curve, though single readings can be large or run the other way; cell line not stated here;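 also: phosphodiesterase inhibitor Ro 20-1724 added with compounds to block cAMP breakdown; potency is read from the fitted curve at half-maximal effect; nearly all actives have a fitted effect of over 60% in size; about a fifth of the inactives were tested at one dose only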
#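 Cells stably selected in G418 were plated at 2000/well, grown 16-24 hr, then given compounds in DMSO with the PDE inhibitor […] (300 uM solution added) for 30 min at 37C; cAMP was read by HTRF.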
# TRPV1 PAM: HTS Assay for Compounds that Act as Potentiators of the Vanilloid Receptor 1; Transient receptor potential cation channel subfamily V member 1 (Homo sapiens), Q8NER1; TRPV1-expressing cells, Fluo-8 calcium influx, capsaicin EC20 potentiation; host cell line not named in the record; control for the full effect not named in the record; potentiation, % at 8.33 µM; 0.02% of 320,000 active; AID 540277, 2011; active means potentiation above 80%; inconclusive means 30% to 80%; inactive means below 30%; also: 0% is about no effect
# Target sequence (Q8NER1 whole entry, looked up): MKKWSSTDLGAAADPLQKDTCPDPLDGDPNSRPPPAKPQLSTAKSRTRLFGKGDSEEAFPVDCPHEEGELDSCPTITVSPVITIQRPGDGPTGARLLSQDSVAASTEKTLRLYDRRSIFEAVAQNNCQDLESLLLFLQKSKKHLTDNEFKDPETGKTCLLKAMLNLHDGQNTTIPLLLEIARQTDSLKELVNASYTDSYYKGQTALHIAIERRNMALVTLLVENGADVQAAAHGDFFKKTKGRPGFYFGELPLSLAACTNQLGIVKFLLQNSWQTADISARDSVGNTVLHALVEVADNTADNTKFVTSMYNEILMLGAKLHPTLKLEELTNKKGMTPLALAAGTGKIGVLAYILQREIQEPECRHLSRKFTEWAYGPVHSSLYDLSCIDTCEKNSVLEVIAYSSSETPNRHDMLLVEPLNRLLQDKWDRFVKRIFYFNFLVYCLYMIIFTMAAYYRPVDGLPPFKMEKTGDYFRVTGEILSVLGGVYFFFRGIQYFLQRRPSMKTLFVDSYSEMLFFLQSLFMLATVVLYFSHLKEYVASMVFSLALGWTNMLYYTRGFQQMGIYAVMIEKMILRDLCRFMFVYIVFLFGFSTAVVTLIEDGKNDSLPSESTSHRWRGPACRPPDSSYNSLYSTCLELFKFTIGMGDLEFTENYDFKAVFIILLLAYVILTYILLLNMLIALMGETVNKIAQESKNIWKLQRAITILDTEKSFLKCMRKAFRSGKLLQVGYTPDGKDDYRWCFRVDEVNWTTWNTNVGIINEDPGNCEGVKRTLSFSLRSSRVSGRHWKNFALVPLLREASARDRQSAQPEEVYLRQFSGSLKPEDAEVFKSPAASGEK
#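 Fluo-8 calcium influx in TRPV1-expressing cells, kinetic read (ex 480/em 520 nm). Compound added and read 3 min for agonist activity, followed by capsaicin at EC20 final and 2 min further read for enhancement.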
# Sfp PPTase inh: qHTS Assay for Inhibitors of Bacillus subtilis Sfp phosphopantetheinyl transferase (PPTase). 4'-phosphopantetheinyl transferase ffp (Bacillus subtilis), Q9F4F7. Biochemical Sfp PPTase activity, qHTS. Potency, µM, inactives show max response, negative = inhibition, most hits filed as inhibitors. 3.5% of 310,000 active. AID 1490, 2009; active = well fitted inhibition curve with a large enough effect; inconclusive = small, poorly fitted or top-dose-only effect, or another doubt; inactive = no such curve, though single readings can be large or run the other way;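 also: the enzyme is Sfp with the accession as filed and its product quenches rhodamine fluorescence; potency is read from the fitted curve at half-maximal effect; 0% = enzyme reaction without inhibitor and -100% = no enzyme wells; top concentration of the series not given in the record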
#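 Step 1, compound plus 15 nM Sfp-PPTase, 15 min, room temperature. Step 2, add rhodamine-CoA (5 uM) and BHQ-2-YbbR (12.5 uM). Step 3, read 525/598 nm fluorescence at 0 and 30 min.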
# CtBP-E1A inh: qHTS Assay for Inhibitors of the CtBP/E1A Interaction; AlphaScreen GST-E1A/His-CtBP binding, 1536-well; active compounds read low; control for the full effect not named in the record; activity change, % (concentration not given with the values); 0.49% of 340,000 active; AID 651724, 2012; in the data active means activity change below about -65%; inconclusive means about -30% to -65%; inactive means above about -30%; also: % is scaled to controls: 0 for no effect and ±100 for the full control effect
#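 AlphaScreen with 125 nM GST-E1A and 125 nM His-CtBP (5X stocks) in Tris pH 8.0, 300 mM NaCl, BSA, Tween 20, TCEP. Compounds preincubated 2 h at 37 deg C, then glutathione donor/nickel acceptor beads added for 1 h at 37 deg C in dark.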
# ClpP mod: qHTS Assay for Activators of ClpP. 1.9% of 340,000 active. AID 651965, 2013. purified B. subtilis ClpP, FRET peptide cleavage, 20 min. Potency, µM (top dose mostly 57.5 µM), without a hit: at the top dose activity change, negative = active. ATP-dependent Clp protease proteolytic subunit (Bacillus subtilis (strain 168)), P80244; active = well fitted falling curve with a large enough effect; inconclusive = small, poorly fitted or top-dose-only effect; inactive = no such curve, though single readings can be large or run the other way; also: potency is read from the fitted curve at half-maximal effect; the source files actives as falling curves though it sought activators and does not explain the sign; nearly all actives have a fitted effect of over 65% in size; many hits overshoot -100%
# Target sequence (P80244 whole entry, looked up): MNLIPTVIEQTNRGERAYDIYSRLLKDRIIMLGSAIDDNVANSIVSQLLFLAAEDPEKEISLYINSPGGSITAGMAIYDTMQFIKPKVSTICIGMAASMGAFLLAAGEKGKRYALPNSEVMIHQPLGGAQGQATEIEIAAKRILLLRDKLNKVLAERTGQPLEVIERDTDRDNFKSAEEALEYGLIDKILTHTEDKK
#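 Buffer: 100 mM Tris/HCl pH8, 100 mM KCl, 0.05% low protease BSA, 2.5% glycerol, 0.01% Tween-20. ClpP 10 microg/mL final; 20 min RT; delta FRET normalized to ADEP and DMSO controls.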
# Menin-MLL FL inh: qHTS Assay for Inhibitors Targeting the Menin-MLL Interaction in MLL Related Leukemias: Competition With Fluorescein Labeled MLL-derived Peptide; Fluorescence polarization, fluorescein-MLL peptide displacement from menin; 290,000 tested, under 10 active; FP activity change, % at 61.4 µM; inconclusive = falling polarisation curve, or a change in total fluorescence; inactive = total fluorescence flat and polarisation flat or rising; no compound was filed as active; the % refers to the polarisation; negative = inhibition;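 also: % of control where 0% means no effect; inhibitors lower the polarisation; unlabelled MLL peptide was the positive control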
# Starred values were filed as active, the others as inactive; ? = inconclusive; · = not tested or not shown; [ ] = remark or other dose.
SMILES,gsp antagonist,gsp agonist,TRPV1 PAM,Sfp PPTase inh,CtBP-E1A inh,ClpP mod,Menin-MLL FL inh
O=C(N/N=C/c1cc(Br)c(O)c(Br)c1)c1cc2c(ccc3ccccc32)o1,-30.4%,-35.7%[15.4 µM],-7.3,?,-12.9,-1.5%,·
CCN(CC(=O)Nc1cccc(S(=O)(=O)N2CCCC2)c1)CC(=O)Nc1ccccc1OC,-26.9%,21.8%[15.4 µM],3.0,8.7%,-1.3,·,-3.7
O=C(Nc1nc(-c2ccccc2)c(C(=O)c2ccccc2)s1)c1ccc(S(=O)(=O)N2CCCCC2)cc1,17.5%,-3.7%[15.4 µM],-12.9,17.6%,11.1,1.2%,5.2
Cc1ccc(/C=N/Nc2ccnc3cc(Cl)ccc23)c(C)c1,-2.5%,-5.2%,-13.7,44.7µM*,3.9,-17.4%,-2.1
COC(=O)c1ccc2c(=O)[nH]c(COC(=O)CCC(=O)c3ccc(Cl)cc3)nc2c1,4.4%,5.9%[15.4 µM],-10.0,·,10.5,·,·
CCN(CC(=O)Nc1cc(Cl)ccc1C)C(=O)CCS(=O)(=O)c1ccc(Cl)cc1,5.1%,3.2%,-2.0,17.5%,0.7,0.9%,·
Cc1nnc(SCC(=O)N2CCN(c3ccccc3)CC2)n1C1CC1,9.7%,?,8.3,·,-8.4,-0.9%,·
Cn1c(=O)c2c(nc(N3CCCC3)n2C)n(C)c1=O,-5.3%,20µM*,-1.0,0.6%,-2.2,-1.7%,-0.2
Cc1nc2nc(SCC(=O)NCCCN3CCOCC3)nn2c(C)c1Cc1ccccc1,4.4%,7.7%,5.2,23.7%,·,-7.1%,-0.4
Brc1ccc(/C=N/n2cnnc2)s1,-3.6%,24.2%[15.4 µM],1.1,10.0%,-4.6,·,4.2
CCCCN(CCCC)CC1OCc2ccccc2CO1,8.7%,-8.4%,-4.6,5.5%,5.3,0.4%,2.5
COc1ccc(C(C#N)=C2C=CC(=NO)C=C2)cc1,8.8%,6.1%[15.4 µM],-5.9,25.1µM*,-8.9,·,-0.1
O=C(Nc1ccc(C(=O)N2CCCC2)cc1)c1ccc(F)cc1Cl,7.3%,-0.3%,3.2,10.7%,4.9,-27.8%,-4.1
O=C1CCCC2=C1C(c1ccccn1)Nc1ccc(C(=O)c3ccccc3)cc1N2 (stereo not given),6.9%,-1.3%,3.6,6.7%,-10.5,1.9%,-0.5
Cc1ccnc(NS(=O)(=O)c2cc([N+](=O)[O-])ccc2C)c1,7.2%,-2.9%[15.4 µM],-2.9,-2.4%,5.2,·,0.7
O=c1c2ccccc2nc(SCc2cc(F)ccc2F)n1C1CCCC1,7.0%,1.4%,0.5,6.3%,-8.7,-2.6%,0.8
Cc1ccsc1C(=O)OC(C)C(=O)NC1CCCCC1C (stereo not given),5.4%,-30.1%[inhibitor],-13.5,·,-17.9,-10.6%,·
C[C@H]1CN([C@@H](C)CO)C(=O)CCCn2nncc2CO[C@@H]1CN(C)C(=O)c1ccc(N2CCN(C)CC2)cc1,·,-41.8%[inhibitor],·,·,1.0,-1.3%,·
O=C(O)C1(c2ccccc2)CCN(S(=O)(=O)c2cccc(Cl)c2)CC1,-1.0%,-36.1%,1.8,27.2%,-20.1,·,-3.1
COc1ccc2cc(C3OCCO3)c(Cl)nc2c1,18.6%,-3.9%[15.4 µM],-7.4,3.6%,6.5,-1.5%,-2.7
COCCCn1c(SCC(=O)NC2CCCCC2)nnc1-c1ccco1,1.5%,9.3%,-1.9,2.8%,-1.1,·,3.0
CCCc1ccc(C(C)NC(=S)NCc2ccc(F)cc2)cc1 (stereo not given),-7.7%,42.7%,-5.5,28.6%,-10.0,-0.7%,-0.6
COc1ccc(Nc2nc(-c3cccs3)cs2)c(OC)c1,-11.8%,-28.4%,-1.2,?,-4.5,-1.2%,2.1
CC(C)(C)NC(=O)CN(CC1CCCO1)C(=O)CNS(=O)(=O)c1ccc(F)cc1 (stereo not given),8.6%,2.2%,3.7,11.6%,0.3,·,-3.7
Cc1ccc(N2CC(C(=O)N3CCC(C(=O)Nc4nnc(C(C)(C)C)s4)CC3)CC2=O)cc1 (stereo not given),-5.7%,0.8%,5.0,18.1%,-2.3,·,-1.9

# One compound at a time (already shown). Order of values: gsp antagonist | gsp agonist | TRPV1 PAM | Sfp PPTase inh | CtBP-E1A inh | ClpP mod | Menin-MLL FL inh
# Profile of `O=C(Nc1ccc(C(=O)N2CCCC2)cc1)c1ccc(F)cc1Cl` = 7.3% | -0.3% | 3.2 | 10.7% | 4.9 | -27.8% | -4.1
# Profile of `O=C(O)C1(c2ccccc2)CCN(S(=O)(=O)c2cccc(Cl)c2)CC1` = -1.0% | -36.1% | 1.8 | 27.2% | -20.1 | · | -3.1
# Profile of `O=c1c2ccccc2nc(SCc2cc(F)ccc2F)n1C1CCCC1` = 7.0% | 1.4% | 0.5 | 6.3% | -8.7 | -2.6% | 0.8

# (further entries)
SMILES,gsp antagonist,gsp agonist,TRPV1 PAM,Sfp PPTase inh,CtBP-E1A inh,ClpP mod,Menin-MLL FL inh
Cc1c(Cl)ccc2sc(N3CCN(C(=O)C4=COCCO4)CC3)nc12,?,3.5%,-1.2,·,-4.9,0.5%,·
CCn1ncc(C2=NOC(C(=O)Nc3ccccc3C(=O)OC)C2)c1C (stereo not given),11.8%,-40.9%[inhibitor],-3.2,5.2%,3.0,-3.3%,-2.2
CCN(C(=O)CN1CCN(S(=O)(=O)c2cc(Cl)ccc2Cl)CC1)c1c(N)n(Cc2ccccc2)c(=O)[nH]c1=O,4.5%,?,29.2,18.5%,10.2,1.2%,2.7
O=C(O/C(=C/c1ccccc1)C(F)(F)F)c1ccccc1,0.7%,0.6%,·,·,30.9,·,·
CC(=O)Nc1ccc(NC(=O)C2CCC(N3C(=O)C4C5C=CC(C6CC56)C4C3=O)CC2)cc1 (stereo not given),8.1%,24.1%,0.9,11.8%,·,0.5%,1.6
CC12CCC(C(=O)Nc3cccc4ccccc34)(C1Br)C2(C)C (stereo not given),-21.1%,7.8%,·,6.5%,5.1,-2.2%,0.6
COc1ccc(CCC(C)Nc2ccccc2F)cc1 (stereo not given),10.3%,-14.5%,5.1,-10.2%,44.3,1.8%,2.5
CCN(CC(=O)Nc1ccc(Br)c(C)c1)CC(=O)NC(C)C,2.0%,8.0%[15.4 µM],-29.6,-15.3%,-1.3,-6.6%,-1.6
O=C(Nc1cccc2ccccc12)OCc1ccccc1,8.9%,3.1%,·,·,-6.0,·,·
CCOC(=O)C1CCN(C(=O)N(C)C)CC1,-1.9%,-22.1%,-21.4,-8.5%,0.2,0.2%,2.5
O=C(c1ccco1)N1CCN(C(=O)N2CCCCC2)CC1,13.5%,2.3%[15.4 µM],2.8,31.8%[activator],4.3,·,5.2
Cc1nnc(SCCn2c(N3CC(C)CC(C)C3)nc3c2c(=O)[nH]c(=O)n3C)s1 (stereo not given),-5.6%,14.6%,-4.2,-1.9%,3.8,-0.1%,3.1
CCN1C(=O)/C(=C/N2CCc3ccccc3C2)SC1=S,-19.2%,-0.5%[15.4 µM],3.8,-10.3%,-20.5,·,4.7
COc1ccc(-c2nc(CN3CCC(C(=O)N4CCOCC4)CC3)c(C)o2)cc1C,-8.7%,-22.3%,-1.5,5.4%,2.6,-17.6%,·
COc1ccc(-c2nn(-c3ccccc3)cc2/C=C(\C#N)S(=O)(=O)c2ccccc2)cc1OC,-2.2%,8.0%,-4.2,-5.8%,4.4,-11.0%,0.7
COc1ccc(-c2c[n+](CC(=O)OC3CC(C)CCC3C(C)C)c3n2CCC3)cc1 (stereo not given),13.5%,-19.8%,-5.5,6.0%,-1.4,-4.4%,-4.5
O=C(Nc1c(-c2ccccc2)nc2ncccn12)c1cc2ccccc2oc1=O,-2.6%,-24.4%,17.5,22.1%,1.9,5.2%,-0.5
O=C(NC(Cc1ccccc1)C(=O)O)/C(=C/c1ccc([N+](=O)[O-])cc1)NC(=O)c1ccc(Br)o1 (stereo not given),-18.8%,0.9%[15.4 µM],-0.3,13.1%,-2.3,0.6%,-1.1
CCCCn1c(SCC(=O)Nc2sc3c(c2C(N)=O)CCC3)nnc1-c1ccccc1,?,-6.1%[15.4 µM],·,·,-12.4,-0.9%,·
O=C(NC1CC1)c1ccc2c(c1)C1C3CCC(C3)C1C(c1ccccc1)N2 (stereo not given),-16.1%,-31.8%[inhibitor],0.2,9.8%,4.8,-29.1%,6.1
COc1ccc(C2=C(c3ccc(OC)c(OC)c3)CN3CCCCC3C2)cc1 (stereo not given),9.0%,·,·,·,-0.1,-3.8%,·
C[C@H](CO)N1C[C@H](C)[C@H](CN(C)S(=O)(=O)c2cccc(F)c2)Oc2cc(Br)ccc2S1(=O)=O,·,-22.7%,·,·,-2.7,-1.1%,·
CN(CC(=O)Nc1ccc2c(c1)OCCO2)Cc1nc2ccccc2c(=O)[nH]1,18.7%,4.7%,3.5,·,-6.5,-0.4%,·
COc1ccccc1N1CCN(Cc2nc(N)nc(Nc3ccccc3)n2)CC1,2.1%,11.2%,-9.0,6.9%,-11.3,-5.6%,1.1
CN(CC(=O)Nc1ccc(Cl)c(Cl)c1)Cc1nnc(-c2ccc(F)cc2)o1,-9.9%,-27.2%[15.4 µM],-7.4,-16.4%,0.4,·,3.1
CN(C)c1ccc(N=Nc2ccccc2C(=O)OCC(=O)NCC2CCCCC2)cc1,-9.6%,12.7%,-2.2,?,-67.6*,0.8%,2.3
Cc1[nH]n(-c2cccc(Cl)c2)c(=O)c1-c1ccccc1,?,-22.2%,-3.8,11.9%,0.0,-3.7%,-1.7
CCCC1(CCC)NC(=O)N(CC(=O)N2CCc3ccccc32)C1=O,-12.1%,-19.5%,·,·,-2.4,-1.4%,·
